# AmpC inh no det: inhibitors of E. coli AmpC beta-lactamase without detergent. Potency, µM (highest dose often 28.7 µM), without a hit: top-dose activity change, negative = inhibition. AID 585. 1.8% of 71,000 active. P00811. AmpC nitrocefin hydrolysis, absorbance 480 nm, no detergent; potencies from a single point are estimates; active = falling curve, for most hits resting on a single point; inconclusive = weak or doubtful change; inactive = flat or rising curve; note: % of control where 0% means no effect; about half of the hits show no inhibition at the top dose; a quarter of the inactives give rising signals
# Target sequence (P00811 whole entry, looked up): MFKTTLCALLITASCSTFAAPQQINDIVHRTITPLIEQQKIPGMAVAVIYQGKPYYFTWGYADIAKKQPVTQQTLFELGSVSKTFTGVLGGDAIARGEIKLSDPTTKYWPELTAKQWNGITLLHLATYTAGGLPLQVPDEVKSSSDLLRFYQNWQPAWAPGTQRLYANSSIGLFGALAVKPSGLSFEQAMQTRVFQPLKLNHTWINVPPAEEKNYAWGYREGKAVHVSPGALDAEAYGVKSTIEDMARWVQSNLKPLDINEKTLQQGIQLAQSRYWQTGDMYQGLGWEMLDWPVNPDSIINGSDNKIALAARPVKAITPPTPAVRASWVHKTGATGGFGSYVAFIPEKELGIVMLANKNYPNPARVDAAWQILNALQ
#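 AmpC, 20 mM phosphate pH 7.0; 15 min cpd preinc, RT; start with nitrocefin (800 uM stock); A480 kinetic read, 20 s intervals, 4 min. No-enzyme wells = negative control.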
# Numbers without * were called inactive; ? = inconclusive; & = joins results of further samples; [ ] = another dose, or the depositor's remark. Potency is the fitted concentration of half-maximal effect.
# The first two compounds (preview)
mol | AmpC inh no det
Cc1cnc(NC(=O)c2ccc(-c3nc4ccccc4s3)o2)s1 | 117.9%
CC1(C)NC(=O)N(CCCSc2ccc(Cl)cc2)C1=O | 30.9%

# The listing, from the first entry:
mol | AmpC inh no det
Cc1cnc(NC(=O)c2ccc(-c3nc4ccccc4s3)o2)s1 | 117.9%
CC1(C)NC(=O)N(CCCSc2ccc(Cl)cc2)C1=O | 30.9%
CN1CCc2cc3c(c4c2C1CC41CCC(=NO)CC1)OCO3 (stereo unspecified) | -16.1%
Cc1ccc2c(c1)-c1cc(C)nn1C(c1ccc3c(c1)OCO3)N2 (stereo unspecified) | 41.5%
COc1cccc(Cn2c(=O)c(-c3ccc(F)cc3)nc3cnc(N4CCNCC4)nc32)c1 | 114.2%
Cc1ccc(C2N(c3nccs3)C(=O)C3CCCN32)cc1 (stereo unspecified) | 20.5%
N#Cc1c(NC(=O)CSc2ncnc3sccc23)oc(-c2ccco2)c1-c1ccco1 | 7.94µM*
O=C(CP(=O)(c1ccccc1)c1ccccc1)Nn1cnnc1 | -9.9%
CN1C(=S)SC(C)(C)C1NO (stereo unspecified) | -16.2%
COc1ccc(Oc2ncc3ncc(=O)n(-c4ccc(OC)cc4)c3n2)cc1 | 26.6%
COC(=O)C1Cc2c([nH]c3ccccc23)C(C)N1 (stereo unspecified) | 9.7%
Cc1ccc(CN2CCSc3ccc(C(=O)N4CCN(c5ncccn5)CC4)cc32)cc1 | 35.1%
COc1ccc(-n2ccnc2SCC(=O)Nc2ccc(OC)cc2OC)cc1 | 18.4%
Cc1cc(=O)oc2cc(O)c(CN(C)CC(=O)O)cc12 | -3.8%[5.75 µM]
CCN(CC)C(=O)CSc1nnc(-c2cnccn2)n1-c1ccc(C)cc1 | 39.5%
C=CCN1CN(S(=O)(=O)c2cccs2)c2nc3ccccc3nc21 | 9.0%
O=C(O)CCc1ccc(-c2cccs2)n1-c1ccc(C(=O)O)cc1 | -19.5%
CCOC(=O)CC(=O)CSc1nc(-c2cccnc2)cc(C)c1C#N | 15.9%
COc1ccc(C2CC(c3ccccc3C)n3nc(N)nc3N2)cc1 (stereo unspecified) | 3.98µM*[single pt active]
COc1ccc(Cl)cc1S(=O)(=O)NCc1cccs1 | 0.6%
COCCNC(=O)NC1(C(F)(F)F)Oc2ccc(Cl)cc2O1 (stereo unspecified) | 9.8%
CC(C)NC[C@@H](O)c1ccc(O)c2ncccc12 | -0.5%[5.75 µM]
CCOC(=O)c1c(P(=O)(N2CCOCC2)N2CCOCC2)noc1N | -2.9%
CCOc1ccc(C(=O)Nc2c3c(nn2-c2cccc(Cl)c2)CS(=O)C3)cc1 (stereo unspecified) | 61.1%
O=C(c1ccccc1F)N1CCN(S(=O)(=O)c2ccc(S(=O)(=O)N3CCCCC3)cc2)CC1 | 61.4%
COc1ccc(CN2CCN(C(=O)COc3cccc(C)c3)CC2)c(OC)c1 | 136.9%
Cc1nnc(Sc2nc(Sc3nnc(C)s3)nc(N3CCN(C)CC3)n2)s1 | 20.6%
O=C1CC(C(=O)Nc2ncccn2)C(c2ccccc2)O1 (stereo unspecified) | -1.3%
CCOC(=O)Cc1csc(NC(=O)COc2ccccc2OC)n1 | 12.9%
CCN(c1nc(N)c(C(=O)N=C(N)N)nc1Cl)C(C)C | 10.5%
CCOc1ccc(CCNS(=O)(=O)c2cnc[nH]2)cc1OCC | 3.9%
CN(C)S(=O)(=O)c1cccc(C(=O)NCCc2ccccc2)c1 | -8.7%
CCOC(=O)c1c(NC(=O)CSc2nnc(-c3cccnc3)o2)sc(C)c1C | 114.8%
O=C(COC(=O)c1ccc(S(=O)(=O)NCc2ccco2)cc1)Nc1ccccc1OC(F)F | ?
O=S1(=O)CC(O)C(N2CCC(c3ccccc3)CC2)C1 (stereo unspecified) | -2.4%
Cc1oc(-c2ccccc2F)nc1CN1CCC(C(=O)NCc2cccs2)CC1 | 36.9%
O=c1c(-c2cc(F)cc(F)c2)nc2cncnc2n1C1CC1 | 5.9%
CN1/C(=C\C(=O)CN2C(=O)NC3(CCCCCC3)C2=O)C(C)(C)c2ccccc21 | 50.6%
COC(=O)COc1ccc2occ(C(C)=O)c2c1 | 7.6%
CCN(CC)S(=O)(=O)c1ccc2c(c1)nc(SCc1nc3ccsc3c(=O)[nH]1)n2CC | 39.3%
COc1cc2c(=O)n(Cc3ccco3)c(=O)n(CC(=O)c3cccc(Br)c3)c2cc1OC | 6.31µM*
C=CCn1c(=O)c2ccccc2n2c(SCc3nnc(-c4ccccc4Br)o3)nnc12 | 13.1%
CCCN(CCC)S(=O)(=O)c1ccc(NS(C)(=O)=O)cc1 | -3.9%
COc1cc(CNC2CCCC2)cc(OC)c1OC | -7.2%
CCc1nnc(NC(=O)CSc2nnc(Cc3cccn3C)n2C)s1 | 12.0%
CCCCNc1nc(C)nc2c1nc(-c1ccccc1)n2CC1CCCN1CC (stereo unspecified) | 100.2%
CC(=O)N(C)c1ccc(NS(=O)(=O)Cc2ccccc2)cc1 | -1.2%
Cc1coc2c1CCC(C)C2 (stereo unspecified) | -1.0%
CCCCOC(=O)c1ccc(NC(=O)c2cnccn2)cc1 | 30.6%
C[C@]12CC[C@H](O)C[C@@H]1CC[C@H]1[C@H]2CC[C@]2(C)[C@H](C(=O)CO)CC[C@@H]12 | 19.2%

# As entered above.
# Under AmpC inh no det, `CCOC(=O)Cc1csc(NC(=O)COc2ccccc2OC)n1` has 12.9%
# Under AmpC inh no det, `CCCCOC(=O)c1ccc(NC(=O)c2cnccn2)cc1` has 30.6%
# Under AmpC inh no det, `CCOc1ccc(CCNS(=O)(=O)c2cnc[nH]2)cc1OCC` has 3.9%

# Continued:
mol | AmpC inh no det
CCc1nc2c(cnn2-c2ccc(Cl)cc2)c(=O)n1-c1ccc2c(c1)OCCO2 | 58.2%
Cc1ccc(-c2csc3ncnc(Sc4nnc(CN5CCCCCC5=O)o4)c23)cc1 | 123.7%
Cc1ccc(C(C)C)c(OCC(O)CN2CC(C)OC(C)C2)c1 (stereo unspecified) | 122.4%
CC1(C)Cc2c(sc(NC(=O)c3ccco3)c2C#N)CO1 | 4.2%
CC1CCN(c2ccccc2N)CC1 | -8.3%
C=CCSC1=C(C#N)C(c2ccccc2)CC(=O)N1 (stereo unspecified) | -10.6%
COCCn1c(=O)c(-c2cn(C)c3ccccc23)nc2cnc(Oc3ccc(OC)cc3)nc21 | 8.6%
Cc1c(C(=O)O)cnc2cc(-c3ccc(Cl)cc3)nn12 | 1.8%
COc1ccccc1CCn1c(=O)c(C)nc2cncnc21 | 45.0%
CSc1nnc(-c2ccco2)n1-c1ccccc1 | 10.8%
CC(C)Sc1nc2c(c(=O)n(C)c(=O)n2C)n1Cc1ccc(Cl)cc1 | 121.9%
CCCNS(=O)(=O)c1ccc2c(c1)CCCN2C(C)=O | -3.0%
OC(COc1ccc(Cl)c2ccccc12)CN1CCN(c2ccccn2)CC1 (stereo unspecified) | 83.7%
COCCN(CCOC)S(=O)(=O)c1ccc(C(=O)Nc2nc(-c3ccncc3)cs2)cc1 | 107.5%
COC(=O)C1CCN(C(=O)CSc2nnc(-c3ccncc3)o2)CC1 | 1.7%
Cc1c(NC(=O)OCCSc2nc(N(C)C)nc(N(C)C)n2)sc(=S)n1C | 39.5%
N#Cc1nc(-c2ccc(OCc3ccccc3)cc2)oc1NCCCn1ccnc1 | 96.7%
CCOc1cccc(OCCOCCN2CCCC2)c1 | -2.4%
CCS(=O)(=O)n1nc(-c2ccccc2)cc1N | -3.5%
Cc1ccc(C)c(CN2C(=O)C3(OCCCO3)c3ccccc32)c1 | 17.4%
CN(C)C=O | -10.4%&-4.9%
COc1ccccc1CN1CC[C@@]2(CCCN(C(=O)c3c(C)noc3C)C2)C1 | 18.5%
O=C(c1cccs1)N(C(=O)c1cccs1)c1ccccn1 | -3.5%
CCCCn1c(=O)n(C)c(=O)c2c(C(F)(F)F)cc(-c3ccncc3)nc21 | 50.5%
O=C(O)c1ccccc1S(=O)(=O)c1ccccc1CO | -19.6%

# Some of the entries above, reformatted.
CCOc1cccc(OCCOCCN2CCCC2)c1
  AmpC inh no det: -2.4%

CCS(=O)(=O)n1nc(-c2ccccc2)cc1N
  AmpC inh no det: -3.5%

# (cont.)
SMILES | AmpC inh no det
CC(C)NC(=O)CN1CCC(O)(c2ccccc2)CC1 | -0.8%
CC(C)(C)c1ccc(S(=O)(=O)N2CCN(CCC#N)CC2)cc1 | 38.8%
CCOC(=O)c1[nH]c(C)c(C(=O)c2cc(F)ccc2F)c1C | -13.1%
CN(C)CCNC(=O)C(C(=O)c1ccc(F)cc1)n1ccccc1=O (stereo unspecified) | -6.9%
Cc1occc1-c1nnc(SCC(=O)N2CCN(c3ccccc3)CC2)n1C | 39.3%
CC1Cn2c(nnc2-c2ccc(F)cc2)S1 (stereo unspecified) | 3.7%
Cc1ccc(C(=O)NCCCCNC(=O)c2ccc(C)o2)o1 | -2.5%
O=C(c1ccco1)N1CCC2(CCCN(Cc3ccccc3)C2)CC1 | 0.7%
C=CCn1c(=O)c2ccccc2n2c(SCC(=O)NCCc3ccccc3)nnc12 | 28.6%
CC1(C)CC(=O)C2=C(C1)OC(N)=C(C#N)C2c1ccccc1OC(=O)N1CCOCC1 (stereo unspecified) | -6.1%
Cc1ccc(C(O)c2nccn2C)o1 (stereo unspecified) | -7.2%
CC(C)C[C@@H](CC(=O)N[C@@H](CCC(=O)O)CC(=O)O)NC(=O)[C@@H]1CNCC[C@H]1NC(=O)C[C@@H](NC(=O)C[C@H](CO)NC(=O)[C@@H]1CNCC[C@H]1N)C(C)C | 8.4%
O=C(O)CSCC(=O)Nc1cc(C(F)(F)F)ccc1Cl | -4.0%
Cc1nc(NCCO)c2nc(-c3ccccc3)n(CC3CCN(C)CC3)c2n1 | -4.2%
COc1cccc(NC(=O)N2CCN(c3cccc(C)c3C)CC2)c1 | 4.0%
CCc1nc2ccccc2n1Cc1ccc(OC)c(OC)c1 | 47.5%
COc1ccc(C)cc1NC(=O)CSc1nnc(-c2ccccn2)n1Cc1ccco1 | 59.6%
O=C(CSc1nnc(C2COc3ccccc3O2)o1)Nc1nccs1 (stereo unspecified) | -16.0%
CCOc1nc(NCCc2ccc(OC)c(OC)c2)nc(NC(C)(C)CO)n1 | 53.6%
CCOC(=O)NC(=O)CSc1ccccn1 | 0.7%
COCCNc1nc(-c2ccccc2OC)nc2ccccc12 | 5.6%
Cc1cc(NC(=O)CSc2nc(C(C)C)nc3sc4c(c23)CCCC4)no1 | -23.0%
COc1ccc(OC)c2[nH]c(=O)c(CCNC(=O)C(C)C)cc12 | -3.3%
O=C(CCc1nc2ccccc2[nH]1)Nc1ccc(F)cc1 | -8.7%
COc1cccc(NC(=O)c2ocnc2C)c1 | -4.4%

# Fetched by structure from the list above, four records:
SMILES | AmpC inh no det
Cc1occc1-c1nnc(SCC(=O)N2CCN(c3ccccc3)CC2)n1C | 39.3%
CCc1nc2ccccc2n1Cc1ccc(OC)c(OC)c1 | 47.5%
O=C(CSc1nnc(C2COc3ccccc3O2)o1)Nc1nccs1 (stereo unspecified) | -16.0%
Cc1nc(NCCO)c2nc(-c3ccccc3)n(CC3CCN(C)CC3)c2n1 | -4.2%

# Going on with the list:
SMILES | AmpC inh no det
Cc1ccc2nsnc2c1S(=O)(=O)N1CCN(C(=O)C2CCCO2)CC1 (stereo unspecified) | 2.9%
CC(C)(C)C1(C)OC(C(N)=O)C(C(N)=O)O1 (stereo unspecified) | -8.6%
O=C(CCNc1ccc(Cl)c(C(F)(F)F)c1)c1ccco1 | 6.2%
O=C(Cc1cccs1)N1CCC(c2nc3c(nnn3Cc3ccccc3Cl)c(=O)[nH]2)CC1 | 77.6%
COC(=O)[C@]1(C)C[C@H]1[C@H](NP(=O)(c1ccccc1)c1ccccc1)c1ccccc1 | 118.4%
CN(C)c1nc(N)nc(-c2cccnc2)n1 | 2.9%
O=C(NC1CCCCC1)C1CCN(S(=O)(=O)N2CCCCCC2)CC1 | 7.0%
O=c1cc(N2CCc3ccccc3C2)[nH]c(=O)n1C1CCCCC1 | -13.1%
Cc1cc(C)n(C(=O)CCC2COc3ccccc3O2)n1 (stereo unspecified) | 0.5%
Cc1cc(C(=O)Nc2cnn(Cc3ccc(Cl)cc3Cl)c2)no1 | 4.8%
CCOC(=O)N1CCN(C(=O)c2ccc3c(SCC(=O)O)c4c(nc3c2)CCC4)CC1 | 115.3%
Cc1ccc(C)c(NC2=NCCCS2)c1 | -7.9%
Cc1ccc(S(=O)(=O)N2CCCC2C(=O)Nc2nc3ccccc3s2)cc1 (stereo unspecified) | -12.2%
COC(=O)c1ccc(OCC(=O)c2ccc(O)cc2O)cc1 | -18.3%
CC(C)C(NC(=O)c1ccccc1NC(=O)c1ccco1)C(=O)O (stereo unspecified) | -7.8%
COc1cccc(NC(=O)CCP(C)(=O)O)c1 | -11.3%
O=C(O)c1nc2ccccc2nc1C(=O)O | -5.3%
Cc1cc(=O)n2nc(N3CCC(C(=O)NCCc4ccccc4)CC3)sc2n1 | 33.5%
CCN(Cc1ccccc1)C(=O)Cn1cnc2c1c(=O)n(C)c(=O)n2C | 13.1%
CC1(C)C(c2ccccc2)=NC(c2ccc(F)cc2)N1O (stereo unspecified) | -13.5%
COc1cc2c(cc1OC)CN(C(=O)c1ccccc1C(=O)O)CC2 | -1.5%
Cn1c(NCCN2CCOCC2)nc2c1c(=O)n(Cc1cccc(Cl)c1)c(=O)n2C | 89.7%
Clc1cccc(-c2nnc(-c3ccccc3)o2)c1 | 11.5%
CCCCOC(=O)c1ccccc1C(=O)OCc1ccccc1 | -7.5%
COc1cccc(C(c2nnnn2CS(=O)(=O)c2ccc(C)cc2)N2CCN(C)CC2)c1OC (stereo unspecified) | 55.9%
O=C(Nc1cccc(Br)c1)c1ccn[nH]1 | 6.6%
O=C(CCn1c(=O)[nH]c2ccccc2c1=O)NCCCN1CCN(c2cccc(Cl)c2)CC1 | 96.8%
Cc1ccc(NC(=O)C2CCN(S(=O)(=O)c3cnc[nH]3)CC2)nc1 | 0.1%

# Assay outcomes deposited in PubChem by National Center for Advancing Translational Sciences (NCATS).

# Some of the compounds tested; rates above refer to the full screens.
